Screening results: PubChem, National Center for Advancing Translational Sciences (NCATS)
Menin MLL FP FL: qHTS Assay for Inhibitors Targeting the Menin-MLL Interaction in MLL Related Leukemias: Competition With Fluorescein Labeled MLL-derived Peptide; Fluorescence polarization, fluorescein-MLL peptide displacement from menin; FP activity change, % at 61.4 µM; 290,000 tested, under 10 active; AID 1766, 2009; inconclusive = falling polarisation curve, or a change in total fluorescence; inactive = total fluorescence flat and polarisation flat or rising; no compound was filed as active; the % refers to the polarisation; negative = inhibition;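 note: % of control where 0% means no effect; inhibitors lower the polarisation; unlabelled MLL peptide was the positive control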
TRPV1 potentiator: HTS Assay for Compounds that Act as Potentiators of the Vanilloid Receptor 1. Transient receptor potential cation channel subfamily V member 1 (Homo sapiens), Q8NER1. TRPV1-expressing cells, Fluo-8 calcium influx, capsaicin EC20 potentiation; host cell line not named in the record; control for the full effect not named in the record. potentiation, % at 8.33 µM. 320,000 compounds, 0.02% hits; active means potentiation above 80%; inconclusive means 30% to 80%; inactive means below 30%; note: 0% is about no effect
Target sequence (Q8NER1 whole entry, looked up): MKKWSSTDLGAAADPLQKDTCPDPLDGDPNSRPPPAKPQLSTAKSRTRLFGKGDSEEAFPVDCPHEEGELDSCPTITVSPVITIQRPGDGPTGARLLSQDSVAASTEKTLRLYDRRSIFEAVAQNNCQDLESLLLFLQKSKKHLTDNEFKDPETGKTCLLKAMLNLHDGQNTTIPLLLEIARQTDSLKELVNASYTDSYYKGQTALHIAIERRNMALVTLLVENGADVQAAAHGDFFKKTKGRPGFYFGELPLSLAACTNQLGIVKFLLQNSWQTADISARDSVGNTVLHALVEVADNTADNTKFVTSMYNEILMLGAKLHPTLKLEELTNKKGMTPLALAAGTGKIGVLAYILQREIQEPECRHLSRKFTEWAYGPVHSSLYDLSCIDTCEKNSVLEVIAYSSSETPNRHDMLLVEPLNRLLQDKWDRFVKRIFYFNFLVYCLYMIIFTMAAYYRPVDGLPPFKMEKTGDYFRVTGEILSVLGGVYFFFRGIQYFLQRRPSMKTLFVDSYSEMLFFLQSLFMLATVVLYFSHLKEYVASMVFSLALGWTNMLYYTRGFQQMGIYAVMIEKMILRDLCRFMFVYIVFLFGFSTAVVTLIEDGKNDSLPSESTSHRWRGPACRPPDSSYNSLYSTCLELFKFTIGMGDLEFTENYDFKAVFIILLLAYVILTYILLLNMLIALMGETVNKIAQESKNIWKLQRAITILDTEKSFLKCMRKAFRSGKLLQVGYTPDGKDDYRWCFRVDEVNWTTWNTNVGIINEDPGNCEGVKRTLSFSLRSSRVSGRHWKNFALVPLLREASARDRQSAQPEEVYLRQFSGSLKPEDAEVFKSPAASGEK
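Fluo-8 calcium influx in TRPV1-expressing cells, kinetic read (ex 480/em 520 nm). Compound added and read 3 min for agonist activity, followed by capsaicin at EC20 final and 2 min further read for enhancement.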
gsp ag: qHTS for Agonist of gsp, the Etiologic Mutation Responsible for Fibrous Dysplasia/McCune-Albright Syndrome: qHTS; gsp mutant cells, cAMP HTRF, 30 min; control for the full effect not named in the record; AID 624287, 2012; Potency, µM (doses to about 76.9 µM), without a hit: at the top dose activation (cAMP increase), actives largely listed as activators; 340,000 compounds, 0.13% hits; active = well fitted activation curve with a large enough effect; inconclusive = small, poorly fitted or top-dose-only effect, or another doubt; inactive = no such curve, though single readings can be large or run the other way; cell line not stated here;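 note: phosphodiesterase inhibitor Ro 20-1724 added with compounds to block cAMP breakdown; potency is the fitted concentration of half-maximal effect; nearly all actives have a fitted effect of over 60% in size; about a fifth of the inactives were tested at one dose only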
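Cells in DMEM/10% FBS with G418 were pretreated with compounds in DMSO plus […] (300 uM stock) for 30 min at 37C. cAMP was measured by HTRF (cAMP-d2 plus anti-cAMP antibody-K) after 30 min at room temperature.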
Sfp inh: qHTS Assay for Inhibitors of Bacillus subtilis Sfp phosphopantetheinyl transferase (PPTase) | Biochemical Sfp PPTase activity, qHTS | Potency, µM, for the others: max response, negative = inhibition, most hits filed as inhibitors | 310,000 compounds, 3.5% hits | 4'-phosphopantetheinyl transferase ffp (Bacillus subtilis), Q9F4F7; active = well fitted inhibition curve with a large enough effect; inconclusive = small, poorly fitted or top-dose-only effect, or another doubt; inactive = no such curve, though single readings can be large or run the other way;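 note: the enzyme is Sfp with the accession as filed and its product quenches rhodamine fluorescence; potency is the fitted concentration of half-maximal effect; 0% = enzyme reaction without inhibitor and -100% = no enzyme wells; top concentration of the series not given in the record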
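Fluorescence-quenching assay: 15 nM Sfp-PPTase preincubated 15 min at room temperature with compound, then 5 uM rhodamine-CoA and 12.5 uM BHQ-2-labelled YbbR peptide added. Fluorescence (ex 525/em 598 nm) read at start and after 30 min; difference gives rate.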
CtBP-E1A blk: qHTS Assay for Inhibitors of the CtBP/E1A Interaction; 340,000 compounds, 0.49% hits; AlphaScreen GST-E1A/His-CtBP binding, 1536-well; active compounds read low; control for the full effect not named in the record; activity change, % (concentration not given with the values); in the data active means activity change below about -65%; inconclusive means about -30% to -65%; inactive means above about -30%; note: % is set by controls: 0 for no effect and ±100 for the full control effect
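In 5 uL wells, 23 nL compound meets equimolar GST-E1A and His-CtBP (5X stock 125 nM each) for 2 h, 37 °C. Beads (5X, 50 ug/mL) then 1 h, 37 °C, dark.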
ClpP mod: qHTS Assay for Activators of ClpP; ATP-dependent Clp protease proteolytic subunit (Bacillus subtilis (strain 168)), P80244; purified B. subtilis ClpP, FRET peptide cleavage, 20 min; Potency, µM (doses to about 57.5 µM), for inactives: at the top dose activity change, negative = active; 340,000 compounds, 1.9% hits; AID 651965, 2013; active = well fitted falling curve with a large enough effect; inconclusive = small, poorly fitted or top-dose-only effect; inactive = no such curve, though single readings can be large or run the other way; note: potency is the fitted concentration of half-maximal effect; the source files actives as falling curves though it sought activators and does not explain the sign; nearly all actives have a fitted effect of over 65% in size; many hits overshoot -100%
Target sequence (P80244 whole entry, looked up): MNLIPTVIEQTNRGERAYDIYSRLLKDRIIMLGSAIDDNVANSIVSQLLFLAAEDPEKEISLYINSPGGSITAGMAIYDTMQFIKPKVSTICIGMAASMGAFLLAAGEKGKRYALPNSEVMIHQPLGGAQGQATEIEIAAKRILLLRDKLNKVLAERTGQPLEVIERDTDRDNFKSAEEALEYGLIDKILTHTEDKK
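FRET quenching reversal measured ClpP activation: 10 microg/mL B. subtilis ClpP at pH 8 with the FRET-FV decapeptide, read at 430 nm after 320 nm excitation. The 20-min minus 0-min signal was scaled between DMSO/no-enzyme wells and ADEP (5.8 microM final).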
gsp antagonist: qHTS for Antagonists of gsp, the Etiologic Mutation Responsible for Fibrous Dysplasia/McCune-Albright Syndrome: qHTS; 340,000 compounds, 0.4% hits; Potency, µM (series often up to 76.9 µM), for inactives: at the highest dose activity change, negative = inhibition, hits mostly inhibitors; gsp-mutant cells, cAMP HTRF, 30 min; control for the full effect not named in the record; AID 624288, 2012; active = falling curve of any shape with a large fitted effect; inconclusive = falling curve, mostly with a smaller effect; inactive = flat or rising curve; cell line not stated here;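 note: intracellular cAMP measured with PDE inhibitor Ro 20-1724 present during compound exposure; potency is the fitted concentration of half-maximal effect; % is set by controls: 0 for no effect and ±100 for the full control effect; nearly all actives have a fitted effect of over 65% in size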
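HTRF cAMP read-out (cAMP-d2 plus anti-cAMP antibody-K in lysis buffer, 30 min RT). Before lysis, cells are exposed to compounds with […] for 30 min at 37C in DPBS containing Ca/Mg, BSA and Tween 20.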
* marks the source's active call; other numbers are inactive results; [ ] = remark or other dose.

Results for Cc1ccc(S(=O)(=O)N(c2ccc(Br)cc2)C2C=CS(=O)(=O)C2)cc1 (stereo not given) ?
Menin MLL FP FL: -2.0; TRPV1 potentiator: 2; gsp ag: 29%; Sfp inh: 11%; CtBP-E1A blk: 7; ClpP mod: 1.8%; gsp antagonist: 3%

How did CCOC(=O)Cn1c2c(c(-c3ccccc3OC)cc1=O)CCCC2 do in these assays?
Menin MLL FP FL: 1.9; TRPV1 potentiator: -4; gsp ag: 4%; Sfp inh: 11%; CtBP-E1A blk: 14; ClpP mod: -0.3%; gsp antagonist: -26%

How did CCOC(=O)C1CCN(C(=O)CN(c2ccc(OC)cc2)S(=O)(=O)c2c(C)noc2C)CC1 do in these assays?
Menin MLL FP FL: -1.3; gsp ag: -3%; Sfp inh: -8%; CtBP-E1A blk: 0; ClpP mod: -1.2%; gsp antagonist: inconclusive

How did COc1ccc(NCC(=O)n2c(C)c(C)c3ccccc32)cc1OC do in these assays?
Menin MLL FP FL: 1.1; gsp ag: -31%[inhibitor]; Sfp inh: -27%; CtBP-E1A blk: -7; gsp antagonist: 1%

How did O=C(COC(=O)c1ccc(O)cc1O)c1ccc2c(c1)OCO2 do in these assays?
Menin MLL FP FL: -0.9; TRPV1 potentiator: 4; gsp ag: -4%; Sfp inh: 9%; CtBP-E1A blk: -1; ClpP mod: -2.9%; gsp antagonist: 11%

What do the screens show for `COC(=O)Cn1nc(C)c2ccccc2c1=O`?
Menin MLL FP FL: -11; TRPV1 potentiator: -8; gsp ag: -13%; Sfp inh: 10%; CtBP-E1A blk: 4; ClpP mod: -3.1%; gsp antagonist: 14%

Results for Cc1cc(C)c(S(=O)(=O)n2nc(C)c(Br)c2C)c(C)c1 ?
Menin MLL FP FL: 1.9; TRPV1 potentiator: 8; gsp ag: 2%[15.4 µM]; Sfp inh: -4%; CtBP-E1A blk: -3; ClpP mod: -2.7%; gsp antagonist: 11%

Results for CCC(C)N(C)Cc1cccc(C2(O)CCN(S(=O)(=O)c3ccc(F)cc3)CC2)c1 (stereo not given) ?
Menin MLL FP FL: 0.4; TRPV1 potentiator: 6; gsp ag: 12%; Sfp inh: 16%; CtBP-E1A blk: 4; ClpP mod: -0.9%; gsp antagonist: 2%

How did C[C@]12c3[nH]c4ccc(Cl)cc4c3CCN1C(=O)[C@@H](CC(=O)NCC13CC4CC(CC(C4)C1)C3)C[C@@H]2C(=O)N1CCOCC1 do in these assays?
CtBP-E1A blk: -15; ClpP mod: -4.4%; gsp antagonist: -12%

What do the screens show for `CC1CN(Cc2ccccc2)C(=O)NC1=O` (stereo not given)?
gsp ag: 0%; CtBP-E1A blk: 5; gsp antagonist: 6%

How did O=c1cc(-c2ccc(O)cc2)oc2c([C@@H]3O[C@H](CO)[C@@H](O)[C@H](O)[C@H]3O)c(O)c([C@@H]3O[C@H](CO)[C@@H](O)[C@H](O)[C@H]3O)c(O)c12 do in these assays?
Menin MLL FP FL: 1.0; TRPV1 potentiator: 13; gsp ag: inconclusive; Sfp inh: 1%; ClpP mod: -3.0%; gsp antagonist: -2%

Results for Cc1ccccc1C(=O)NC1CC2CCCC(C1)N2Cc1ccccc1 (stereo not given) ?
Menin MLL FP FL: -3.8; TRPV1 potentiator: 9; gsp ag: 7%; Sfp inh: 8%; CtBP-E1A blk: -5; ClpP mod: -3.2%; gsp antagonist: 8%

Results for CC(=O)N/C(=C\c1ccccc1)C(=O)OCC(=O)N(C)C1CCS(=O)(=O)C1 (stereo not given) ?
gsp ag: -40%[inhibitor]; CtBP-E1A blk: 3; ClpP mod: inconclusive; gsp antagonist: 5%

What do the screens show for `Cc1nc2ccc(-c3nc4ccc(N)cc4[nH]3)cc2[nH]1`?
Menin MLL FP FL: 1.1; TRPV1 potentiator: 0; gsp ag: -5%[15.4 µM]; Sfp inh: 2%; CtBP-E1A blk: -17; gsp antagonist: inconclusive

Results for CCOC(=O)CNC(=O)CSc1nc(C(C)C)nc2c1cnn2-c1ccccc1 ?
gsp ag: inconclusive; CtBP-E1A blk: 8; ClpP mod: 1.0%

How did COc1ccc(C2Nc3ccccc3C(=O)N2NS(=O)(=O)c2ccccc2)cc1 (stereo not given) do in these assays?
Menin MLL FP FL: -0.1; TRPV1 potentiator: 0; gsp ag: 2%; Sfp inh: 11%; CtBP-E1A blk: -8; gsp antagonist: 4%

What do the screens show for `CC(=O)C(C)Oc1ncn(-c2ccccc2)n1` (stereo not given)?
Menin MLL FP FL: 2.3; TRPV1 potentiator: inconclusive; gsp ag: -9%; Sfp inh: 1%; CtBP-E1A blk: -1; ClpP mod: -2.9%; gsp antagonist: 10%

How did C/C(=N\NC(=O)c1cc([N+](=O)[O-])cc([N+](=O)[O-])c1)c1ccco1 do in these assays?
Menin MLL FP FL: -0.2; TRPV1 potentiator: 7; gsp ag: -22%; Sfp inh: 35µM*; CtBP-E1A blk: 5; gsp antagonist: 12%

What do the screens show for `O=C(c1ccoc1)N1CCC2(CC1)Oc1ccc(Cl)cc1C(=O)C21CC(c2cccnc2)=NO1` (stereo not given)?
Menin MLL FP FL: 1.3; TRPV1 potentiator: -9; Sfp inh: -2%; CtBP-E1A blk: 5; ClpP mod: -6.0%; gsp antagonist: -9%

Results for Cc1c(NN=C(C#N)C#N)c(=O)n(-c2ccccc2)n1C ?
Menin MLL FP FL: inconclusive; TRPV1 potentiator: -9; gsp ag: -4%[15.4 µM]; Sfp inh: -76%; CtBP-E1A blk: 2; gsp antagonist: -2%

How did Cc1c(CNC(=O)C2CC2)c(-n2cccc2)n(Cc2ccccc2)c1C do in these assays?
Menin MLL FP FL: 4.8; TRPV1 potentiator: -11; gsp ag: -4%; Sfp inh: 10%; ClpP mod: 0.3%; gsp antagonist: 3%

What do the screens show for `O=C1CC(N(C(=O)c2ccco2)c2ccc(F)cc2)C(=O)N1c1ccc(F)cc1` (stereo not given)?
Menin MLL FP FL: 6.6; TRPV1 potentiator: -14; gsp ag: 4%; Sfp inh: 10%; CtBP-E1A blk: 9; ClpP mod: 1.2%; gsp antagonist: 8%

How did Nc1c(SCCC(=O)O)ccc2c1C(=O)c1ccccc1C2=O do in these assays?
Menin MLL FP FL: inconclusive; TRPV1 potentiator: 9; gsp ag: inconclusive; Sfp inh: -2%; CtBP-E1A blk: -15; ClpP mod: 0.6%; gsp antagonist: inconclusive

What do the screens show for `COc1ccc(C(=O)CSc2nnnn2Cc2ccccc2)cc1`?
Menin MLL FP FL: 0.1; TRPV1 potentiator: 4; gsp ag: 17%; Sfp inh: -5%; CtBP-E1A blk: 6; ClpP mod: -1.7%; gsp antagonist: -12%

How did OCCCNc1cc(-c2ccccc2)nc2cc(-c3ccc(F)cc3)nn12 do in these assays?
Menin MLL FP FL: 5.9; TRPV1 potentiator: -18; gsp ag: -1%; Sfp inh: -2%; CtBP-E1A blk: 7; gsp antagonist: 35µM*

How did c1coc(Cn2c(-c3ccco3)nc3ccccc32)c1 do in these assays?
Menin MLL FP FL: 11; TRPV1 potentiator: -9; gsp ag: 4%; Sfp inh: -27%; CtBP-E1A blk: -23; ClpP mod: 28µM*; gsp antagonist: 0%

Results for C=CCn1c(SCc2ccccc2Cl)nnc1-c1sc2nc(C)cc(C)c2c1N ?
Menin MLL FP FL: 2.8; TRPV1 potentiator: 5; gsp ag: 6%; Sfp inh: -1%; ClpP mod: inconclusive; gsp antagonist: 14%

Results for CN(C)/C=C1/C=C(C=O)OC1=O ?
Menin MLL FP FL: 2.2; TRPV1 potentiator: 11; gsp ag: -14%[15.4 µM]; Sfp inh: 19%; CtBP-E1A blk: 12; ClpP mod: 0.9%; gsp antagonist: 0%

Results for C=C(C)CNC(=S)N/N=C/c1ccco1 ?
Menin MLL FP FL: -0.2; TRPV1 potentiator: -6; gsp ag: -13%; Sfp inh: -8%; CtBP-E1A blk: 0; gsp antagonist: 4%

Results for C[C@H](NC(=O)C1CCN(S(=O)(=O)c2ccccc2)CC1)C(=O)NCc1ccccn1 ?
TRPV1 potentiator: 7; gsp ag: inconclusive; Sfp inh: 14%; CtBP-E1A blk: -6; ClpP mod: 0.6%; gsp antagonist: 22%

Results for C[C@H](CO)N1C[C@H](C)[C@H](CN(C)C(=O)Nc2ccc(F)cc2)OCc2ccccc2-c2c(n(C)c3ccccc23)C1=O ?
gsp ag: inconclusive; CtBP-E1A blk: -13; ClpP mod: -3.5%

How did CCN(CC(=O)NC1CCS(=O)(=O)C1)C(=O)COc1ccccc1-c1ccccc1 (stereo not given) do in these assays?
Menin MLL FP FL: 0.0; TRPV1 potentiator: -11; gsp ag: 13%; Sfp inh: 14%; CtBP-E1A blk: 14; ClpP mod: -1.4%; gsp antagonist: -1%

Three compounds picked at random from those above, as already listed:
What do the screens show for `COc1ccc(C(=O)CSc2nnnn2Cc2ccccc2)cc1`?
Menin MLL FP FL: 0.1; TRPV1 potentiator: 4; gsp ag: 17%; Sfp inh: -5%; CtBP-E1A blk: 6; ClpP mod: -1.7%; gsp antagonist: -12%

How did Cc1c(CNC(=O)C2CC2)c(-n2cccc2)n(Cc2ccccc2)c1C do in these assays?
Menin MLL FP FL: 4.8; TRPV1 potentiator: -11; gsp ag: -4%; Sfp inh: 10%; ClpP mod: 0.3%; gsp antagonist: 3%

How did c1coc(Cn2c(-c3ccco3)nc3ccccc32)c1 do in these assays?
Menin MLL FP FL: 11; TRPV1 potentiator: -9; gsp ag: 4%; Sfp inh: -27%; CtBP-E1A blk: -23; ClpP mod: 28µM*; gsp antagonist: 0%
